Bioassay records deposited in PubChem by National Center for Advancing Translational Sciences (NCATS).
SmPrx2 inh: Schistosoma Mansoni Peroxiredoxins (Prx2). Schistosoma mansoni peroxiredoxin 2 (Prx2). S. mansoni Prx2 activity coupled to TGR/GSH (TGR is thioredoxin glutathione reductase), NADPH fluorescence loss, qHTS; some inactives read as strong as hits. Potency, µM. 65,000 tested, 0.07% active. AID 448, 2006; active means full or partial inhibition curve with a strong effect at the top dose; inconclusive means weaker partial or single-point curve; inactive means no accepted curve; also: series up to 57 µM; many of its hits are not listed in these tables
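Activity is read as the drop in NADPH fluorescence (365/450 nm), recorded every 30 sec for 8 min after H2O2 addition. Prx2 is coupled to TGR-driven NADPH oxidation through glutathione, in phosphate buffer pH 7.4.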
Anthrax LT inh: qHTS Assay for Anthrax Lethal Toxin Internalization; Cells, anthrax lethal toxin internalization, FRET ratio (460/530); Potency, µM (titrated, usually from 40 µM), without a hit: at the top dose activity change, negative = inhibition, usual class: inhibitors; 70,000 tested, 0.67% active; AID 912, 2007; active = well fitted falling ratio curve with the 530 nm signal flat; inconclusive = other ratio curves, or a change in one channel alone; inactive = flat curves in the ratio and both channels; the % refers to the ratio; also: % is scaled to controls: 0 for no effect and ±100 for the full control effect; nearly all actives have a fitted effect of over 50% in size; tested in ME-180 cells; beta-lactamase reporter
* marks the source's active call; other numbers are inactive results; ? = inconclusive; nt = no result given; [ ] = remark or other dose. Potency is read from the fitted curve at half-maximal effect. An excerpt; count on the stated rates, not on these rows.

SMILES	SmPrx2 inh	Anthrax LT inh
COc1ccc(-c2ccc(-c3noc(C(C)C)n3)c(OC)n2)cc1	>57	9%
CCCNS(=O)(=O)c1ccc(OCC(=O)NCc2ccco2)cc1	>57	-14%
O=C1CSC(c2ccccn2)N1c1ccccc1 (centres undefined)	>57	-13%
O=C(C1=C(O)C(=O)N(CCc2ccccc2)C1c1cccnc1)c1ccco1 (centres undefined)	>57	?
CC1CCc2nc(N)c(C#N)c(-c3cccnc3)c2C1 (centres undefined)	>57	-5%
CN(Cc1ccccc1)Cc1c(F)cccc1F	>57	-5%
CS(=O)(=O)N(CC(=O)N1CCOCC1)c1ccc2c3c(cccc13)CC2	>57	21%
COc1ccc(OC)c(NC(=O)CSc2nnc(CNC(=O)COc3ccc(Cl)cc3)o2)c1	>57	-12%
CSc1nnc2c(n1)OC(C)=Nc1ccccc1-2	>57	nt
COC(=O)c1ccc(NC(=O)CNC(=O)C2CCCCC2)cc1	nt	-8%
O=C1NC(c2ccccc2)(C(F)(F)F)C(=O)N1Cc1cccnc1 (centres undefined)	>57	7%
CCc1ccc(N(CC(=O)NC2CCCCC2)S(=O)(=O)c2c(C)noc2C)cc1	>57	-24%
O=C(CN1CCCCC1)Nc1cccc(Cl)c1Cl	>57	-8%
O=C(CN1CCN(c2ccccc2)CC1)Nc1ccc(-n2cnnn2)cc1	>57	-7%
CCN=c1scc(-c2ccc3c(c2)NC(=O)CO3)n1N=C1CCCC1	>57	?
CC(=O)N1C(=O)C2(C(C#N)=C(N)Oc3n[nH]c(-c4ccccn4)c32)c2ccccc21 (centres undefined)	>57	-2%
CCn1c(CCC(=O)Nc2nc3c(s2)CCCC3)nc2cc(S(=O)(=O)N(C)C)ccc21	>57	?
Cc1nc2cc(N3CCN(C)CC3)c(NC(=O)Cc3ccccc3)cc2c(=O)n1Cc1ccccc1	>57	1%
OC[C@H]1O[C@@H]2O[C@H]3[C@H](O)[C@@H](O)[C@@H](O[C@H]4[C@H](O)[C@@H](O)[C@@H](O[C@H]5[C@H](O)[C@@H](O)[C@@H](O[C@H]6[C@H](O)[C@@H](O)[C@@H](O[C@H]7[C@H](O)[C@@H](O)[C@@H](O[C@H]8[C@H](O)[C@@H](O)[C@@H](O[C@H]1[C@H](O)[C@H]2O)O[C@@H]8CO)O[C@@H]7CO)O[C@@H]6CO)O[C@@H]5CO)O[C@@H]4CO)O[C@@H]3CO	nt	-25%
Cc1cccc(NC(=O)c2cccs2)n1	>57	-17%
CC(C)Cn1c(SCC(=O)NC(=O)NC2CCCC2)nc2ccccc21	>57	?
COC(=O)CSC1=C(C#N)C(c2sccc2C)CC(=O)N1 (centres undefined)	>57	-7%
O=C(OCC(=O)N1CCc2ccccc21)c1cccnc1	>57	-10%
Cc1csc(NC(=O)C2CCN(C(=O)CSc3nnc(C)n3Cc3ccccc3)CC2)n1	>57	?
O=C(Nc1cnc2ccccc2c1)C1COc2ccccc2O1 (centres undefined)	nt	?
O=C1C=CC2(OCCCO2)C(Br)=C1	nt	-3%[8 µM]
C=CCn1c(SCC(=O)Nc2cc(C)ccc2OC)nnc1-c1ccco1	>57	7%
Cc1ncsc1C(=O)Nc1nc2c(s1)CC(C)CC2 (centres undefined)	>57	6%
O=S1(=O)C=C(N2CCOCC2)c2ccccc21	>57	8%
COc1cc(CN2CCN(c3cccc(C)c3C)CC2)cc(Br)c1O	>57	?
COC(=O)NC1CSCC1OC(=O)CCN1C(=O)c2ccccc2C1=O (centres undefined)	>57	1%
O=C(NCc1ccc(F)cc1)c1cc(-c2cccs2)on1	>57	2%
CCOc1ccc(-n2ccnc2SCC(=O)NCc2ccc3c(c2)OCO3)cc1	>57	-7%
Nc1nc2c(s1)CC(c1ccccc1)CC2 (centres undefined)	>57	4%
CCOc1ccc(-c2[nH]ncc2Oc2ccccc2OC)c(O)c1	>57	nt
COCCNC(=O)C1(C)C=CC2(CCCCC2)N1C(=O)c1ccccc1 (centres undefined)	nt	-10%

3 entries already listed, sorted by number of heavy atoms, smallest number first:
SMILES	SmPrx2 inh	Anthrax LT inh
Nc1nc2c(s1)CC(c1ccccc1)CC2 (centres undefined)	>57	4%
O=C(Nc1cnc2ccccc2c1)C1COc2ccccc2O1 (centres undefined)	nt	?
CCOc1ccc(-n2ccnc2SCC(=O)NCc2ccc3c(c2)OCO3)cc1	>57	-7%

(cont.)
SMILES	SmPrx2 inh	Anthrax LT inh
Cc1cc(OCC(=O)C(C)(C)C)c2c(C)c(C)c(=O)oc2c1	nt	?
Cc1cccc(Cn2c(SCC(=O)Nc3ccccc3)nc3c2c(=O)[nH]c(=O)n3C)c1	nt	2%
O=C(c1ccco1)N1CCN(c2nc3ccccc3c(=O)n2-c2ccccc2)CC1	>57	15%
O=C(OCCN1C(=O)c2ccccc2C1=O)c1ccc(S(=O)(=O)N2CCCCCC2)cc1	>57	4%
CCN(CC)C1CCCCC1NS(=O)(=O)c1ccc(Cl)cc1 (centres undefined)	>57	-7%
Cc1cccc2cc(C#N)c(N3CCN(C)CC3)nc12	>57	-18%
Cc1nc2sccn2c1-c1nc(-c2cc3ccccc3o2)cs1	>57	-14%
Cn1c(SCC(=O)NC2CC2)nnc1C(F)(F)F	>57	-1%
CC(=O)N1CCN(C(=O)Nc2cccc(C(F)(F)F)c2)CC1	>57	-4%
O=C(c1ccc(Br)o1)N(c1ccc(Br)cc1)C1C=CS(=O)(=O)C1 (centres undefined)	>57	-20%
COc1cc(/C=C\C(=O)CC(=O)/C=C\c2ccc(O)c(OC)c2)ccc1O	>57	?
O=C(Nc1nc(-c2cccs2)cs1)c1cccc(S(=O)(=O)N2CCCCC2)c1	>57	?
CC(=O)c1cccc(S(=O)(=O)N2CCCC(c3nc(-c4ccc(C)o4)no3)C2)c1 (centres undefined)	>57	-10%
O=C(CCC(=O)NC1CCN(Cc2ccccc2)CC1)NCc1ccco1	>57	-4%
N#Cc1cc2c(nc1SCC(=O)NCc1ccc3c(c1)OCO3)CCCCC2	>57	?
CCC(c1nnnn1CC1CCCO1)N(CCN1CCOCC1)Cc1cc2cc(C)ccc2[nH]c1=O (centres undefined)	>57	-26%
CC[C@@]1(O)C(=O)OCc2c1cc1n(c2=O)Cc2cc3c(CN(C)C)c(O)ccc3nc2-1	>57	?
Cc1[nH]c2ccc(S(N)(=O)=O)cc2c1C	nt	-1%
CC1CCc2cccc3c2N1c1cc(C#N)c(C#N)cc1O3 (centres undefined)	>57	nt
COc1ccccc1CNC(=O)C1CCCN(S(=O)(=O)c2cccc3cccnc23)C1 (centres undefined)	>57	-14%
CCOC(=O)Nc1ccc2c(c1)N(C(=O)OCCN(C)C)c1ccccc1CC2	>57	-12%
O=C(NCCCn1ccnc1)c1ccc(Cl)c(S(=O)(=O)N2CCOCC2)c1	>57	1%
COc1ccc(OC)c(S(=O)(=O)N2CCC(C(=O)Nc3cccc(C(F)(F)F)c3)CC2)c1	>57	-25%
O=C(c1cccc(S(=O)(=O)N2CCCC2)c1)N1CCN(c2ccccc2)CC1	>57	-11%
CCSc1nnc(-c2ccccc2N)c(=O)[nH]1	>57	?
O=C(O)CC1SC(=Nc2ccccc2)N(c2ccccc2)C1=O (centres undefined)	>57	?
CCc1cc(C(C)=O)c(O)cc1OCCCCCC(C)(C)c1nn[nH]n1	nt	?
Cc1nnc(SCC(=O)Nc2ccccc2)n1CCc1ccccc1	>57	8%
COc1ccc(-c2cc(=O)oc3c(C)c(OCc4nn[nH]n4)ccc23)cc1	>57	?
Fc1ccc(-c2nnn(Cc3nc4ccccc4s3)n2)cc1	>57	-23%
Cc1ccc(S(=O)(=O)N2CCN(C(=O)CN3CCOCC3)C2c2ccccc2)cc1 (centres undefined)	>57	13%
CCOC(=O)C1CCCN(C(=O)C2c3ccccc3Oc3ccccc32)C1 (centres undefined)	>57	?
CNS(=O)(=O)c1cccc(C(=O)OCC(=O)Nc2ccccc2OC(F)F)c1	>57	4%
COC(=O)c1[nH]c2ccccc2c1NS(=O)(=O)c1ccc(F)c(C)c1	>57	-9%
O=C1CC(NCc2ccncc2)C(=O)N1c1ccccc1 (centres undefined)	>57	-8%
O=C(O)c1ccccc1NCn1c(=S)sc2ccccc21	>57	0%[8 µM]
O=C(Cn1c(=O)n(-c2ccccc2)c(=O)n1CC(=O)N1CCCCC1)N1CCCCC1	nt	2%
Cn1c(=O)c2[nH]c(CCC(=O)O)nc2n(C)c1=O	>57	-3%[8 µM]
COc1ccc(CNc2oc(-c3ccccc3)nc2C#N)cc1	>57	-2%
COc1ccc(-c2nnnn2C)cc1S(=O)(=O)NCc1ccccc1	>57	-4%
Cc1noc(C)c1-c1nc(NCc2cccs2)c2ccccc2n1	>57	-25%
CC(=O)NC1(c2ccccc2)CCN(Cc2nnnn2C(C)(C)C)CC1	>57	0%
CS(=O)(=O)c1ccc2nc(NC(=O)CCC(=O)c3cccs3)sc2c1	>57	-13%
Cc1c(Cc2ccccc2)c(=O)oc2c(CN(C)C)c(O)c(Cl)cc12	nt	?
C[C@H]1[C@H](C)OC(=O)C[C@H](O)C[C@H](O)C[C@H](O)CC[C@H](O)[C@H](O)CC(=O)C[C@H](O)[C@H](C(=O)O)[C@H](O)C[C@H](O[C@@H]2O[C@@H](C)[C@H](O)[C@@H](N)[C@@H]2O)C=CC=CC=CC=CCCC=CC=C[C@@](C)(O)[C@H]1O	>57	-7%[8 µM]
COc1cc2[nH]c(=O)n(CCC(=O)NC3CCCC3)c(=O)c2cc1OC	>57	1%
Nc1ccc(SC(F)(F)F)cc1C(=O)c1ccccc1	nt	?
CCOC(=O)N1CCN(S(=O)(=O)c2ccc(OCC(=O)OC)cc2)CC1	>57	6%
Cn1c(=O)c2c(nc(CN3CCN(c4ccc(F)cc4)CC3)n2Cc2ccccc2F)n(C)c1=O	>57	-4%
CCC(C)Sc1nc2c(c(=O)[nH]c(=O)n2C)n1Cc1ccccc1Cl (centres undefined)	>57	6%
COc1ccc(NC(=O)CNS(=O)(=O)c2cccc3nonc23)c(OC)c1	>57	-3%
O=C(NCCc1ccc(Cl)cc1)c1cnc2n(c1=O)CCS2	>57	-14%
Cc1nn2c(-n3ccnc3)c3c(nc2c1-c1ccccc1)CCC3	>57	-15%
O=C1c2ccccc2NC(c2ccccc2)N1Cc1ccco1 (centres undefined)	>57	-4%
CC(=O)c1cccc(OCC(=O)c2cc(C)n(-c3cc(C)on3)c2C)c1	>57	-17%
O=C(CSc1ccc2nnc(-c3ccccc3)n2n1)NCC1CCCO1 (centres undefined)	>57	-2%
Cc1ccc(N2CCCn3c2nc2c3c(=O)n(CC(=O)OCc3ccccc3)c(=O)n2C)cc1C	>57	?
COc1ccc(OC)c(-c2[nH]nc3c2C(c2ccco2)C(C#N)=C(N)O3)c1 (centres undefined)	>57	1%
COc1ccc(S(=O)(=O)Cc2ccc(C(=O)NC(C)C)o2)cc1	>57	0%
COc1ccc(C2=NO[C@@H]3C(=O)N(c4c(C)cccc4C)C(=O)[C@H]23)cc1OC	>57	?

Reprinted from the part before: five compounds, then new ones.
SMILES	SmPrx2 inh	Anthrax LT inh
O=C(CSc1ccc2nnc(-c3ccccc3)n2n1)NCC1CCCO1 (centres undefined)	>57	-2%
Cc1ccc(N2CCCn3c2nc2c3c(=O)n(CC(=O)OCc3ccccc3)c(=O)n2C)cc1C	>57	?
COc1ccc(OC)c(-c2[nH]nc3c2C(c2ccco2)C(C#N)=C(N)O3)c1 (centres undefined)	>57	1%
COc1ccc(S(=O)(=O)Cc2ccc(C(=O)NC(C)C)o2)cc1	>57	0%
COc1ccc(C2=NO[C@@H]3C(=O)N(c4c(C)cccc4C)C(=O)[C@H]23)cc1OC	>57	?
Cc1cc(Cl)c2c(c1)[C@]1(C(=O)N2)[C@@H]2C(=O)N(Cc3ccccc3)C(=O)[C@@H]2[C@@H]2CCCN21	>57	-15%
N#CC(=C1CCCC1)c1nc(-c2ccccc2O)cs1	>57	-20%
Cc1[nH]c(=O)[nH]c(=O)c1S(=O)(=O)N1CCOCC1	nt	-11%
CC1CCCC(NC(=O)CSc2nccn2C)C1C (centres undefined)	>57	1%
CCOC(=O)CSc1nnc(CNC(=O)c2cccs2)n1CCc1ccccc1	>57	6%
COc1cc(S(=O)(=O)N2CCOCC2)ccc1NC(=O)c1cc2c(s1)CCC2	>57	14%
CCCCC(=O)N(c1ccc(OC)cc1)C1C=CS(=O)(=O)C1 (centres undefined)	>57	14%
Cc1cc(Cl)cc(Br)c1OCCCCn1cncn1	>57	5%
CC(=O)Nc1nc2ncc(C=O)nc2c(=O)[nH]1	>57	5%[8 µM]
O=C(NC12CC3CC(CC(C3)C1)C2)N1CCN(c2ccccn2)CC1	>57	1%
CC1CN(c2nc3ccccc3nc2C(C#N)C(=O)NCc2ccc3c(c2)OCO3)CC(C)O1 (centres undefined)	>57	1%
COC(=O)Nc1ccc(C)c(NC(=O)OC)c1	>57	-15%
CCOC(=O)Cn1c(C)c(Br)c(=O)c2cccc(C)c21	>57	-9%
Cc1cccc(NC(=O)CCN2C(=O)C3C4C=CC(C4)C3C2=O)n1 (centres undefined)	>57	-3%

Compounds above with a tert-butyl group, in the order listed:
SMILES	SmPrx2 inh	Anthrax LT inh
Cc1cc(OCC(=O)C(C)(C)C)c2c(C)c(C)c(=O)oc2c1	nt	?
CC(=O)NC1(c2ccccc2)CCN(Cc2nnnn2C(C)(C)C)CC1	>57	0%
